ClpP mod – qHTS Assay for Activators of ClpP; Potency, µM (titrated, usually from 57.5 µM), for the others: at the highest dose activity change, negative = active; 1.9% of 340,000 active; AID 651965, 2013; ATP-dependent Clp protease proteolytic subunit (Bacillus subtilis (strain 168)), P80244; purified B. subtilis ClpP, FRET peptide cleavage, 20 min; active = well fitted falling curve with a large enough effect; inconclusive = small, poorly fitted or top-dose-only effect; inactive = no such curve, though single readings can be large or run the other way; further: potency means the concentration at half of the fitted maximal effect; the source files actives as falling curves though it sought activators and does not explain the sign; nearly all actives have a fitted effect of over 65% in size; many hits overshoot -100%
Target sequence (P80244 whole entry, looked up): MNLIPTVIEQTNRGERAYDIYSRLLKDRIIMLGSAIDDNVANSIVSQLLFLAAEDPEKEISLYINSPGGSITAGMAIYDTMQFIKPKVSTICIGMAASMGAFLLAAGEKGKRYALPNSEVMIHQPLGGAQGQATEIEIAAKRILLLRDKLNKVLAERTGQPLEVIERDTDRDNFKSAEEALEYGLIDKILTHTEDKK
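Buffer: 100 mM Tris/HCl pH8, 100 mM KCl, 0.05% low protease BSA, 2.5% glycerol, 0.01% Tween-20. ClpP 10 microg/mL final; 20 min RT; delta FRET normalized to ADEP and DMSO controls.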
TRPV1 potentiator – potentiators of human vanilloid receptor 1 (TRPV1). TRPV1-expressing cells, Fluo-8 calcium influx, capsaicin EC20 potentiation; host cell line not named in the record; control for the full effect not named in the record. potentiation, % at 8.33 µM. 0.02% of 320,000 active; active means potentiation above 80%; inconclusive means 30% to 80%; inactive means below 30%; further: 0% is about no effect
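Fluo-8 calcium influx in TRPV1-expressing cells, kinetic read (ex 480/em 520 nm). Compound added and read 3 min for agonist activity, followed by capsaicin at EC20 final and 2 min further read for enhancement.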
Sfp inh – blocks B. subtilis Sfp PPTase activity; 3.5% of 310,000 active; AID 1490; Biochemical Sfp PPTase activity, qHTS; Potency, µM, for inactives: max response, negative = inhibition, actives largely listed as inhibitors; Q9F4F7; active means well fitted inhibition curve with a large enough effect; inconclusive means small, poorly fitted or top-dose-only effect, or another doubt; inactive means no such curve, though single readings can be large or run the other way;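 further: the enzyme is Sfp with the accession as filed and its product quenches rhodamine fluorescence; potency means the concentration at half of the fitted maximal effect; 0% = enzyme reaction without inhibitor and -100% = no enzyme wells; top concentration of the series not given in the record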
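With Hepes-Na pH 7.6 buffer containing 10 mM MgCl2, Sfp (15 nM) modified BHQ-2-YbbR (12.5 uM) using rhodamine-CoA (5 uM). Two reads 30 minutes apart at 525/598 nm yielded each well's rate.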
TRPML1 ag – activates the human TRPML1 channel | Q9GZU1 | TRPML1-expressing cells, Ca2+ dye fluorescence, FDSS; host cell line not named in the record; reference of the full effect not given here | activation, % (test concentration not listed) | 0.12% of 410,000 active | AID 624414; in the data active = activation above about 50%; inconclusive = about 30% to 50%; inactive = below about 30%; further: 0% is about no effect; the text of the record puts the active cut at 80%
Target sequence (Q9GZU1 whole entry, looked up): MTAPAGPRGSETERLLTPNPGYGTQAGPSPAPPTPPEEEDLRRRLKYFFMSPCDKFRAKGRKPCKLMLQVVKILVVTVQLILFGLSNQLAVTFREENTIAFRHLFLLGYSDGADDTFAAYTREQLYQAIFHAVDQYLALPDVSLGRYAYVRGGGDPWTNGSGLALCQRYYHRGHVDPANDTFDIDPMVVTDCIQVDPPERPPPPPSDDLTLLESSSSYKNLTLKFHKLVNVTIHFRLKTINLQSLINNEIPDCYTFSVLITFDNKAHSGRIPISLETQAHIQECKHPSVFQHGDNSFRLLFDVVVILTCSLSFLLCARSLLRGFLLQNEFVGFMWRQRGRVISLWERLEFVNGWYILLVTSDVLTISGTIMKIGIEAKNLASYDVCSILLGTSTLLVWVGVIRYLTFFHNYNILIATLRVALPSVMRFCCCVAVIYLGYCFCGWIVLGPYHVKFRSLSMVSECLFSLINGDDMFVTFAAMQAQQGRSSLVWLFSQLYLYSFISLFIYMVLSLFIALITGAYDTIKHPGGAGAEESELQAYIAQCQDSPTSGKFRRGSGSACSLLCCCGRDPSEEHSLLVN
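TRPML1-DL cells, Tet-induced overnight (~16 h, 37 degrees C), loaded 45-90 min at room temperature with Ca8 no-wash calcium dye plus quencher. FDSS fluorescence: 10 s baseline, compound pin-transfer, 110 s agonist read, then EC80 54-4 (4uM final) and 110 s antagonist read.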
Menin MLL FP FL – displaces fluorescein MLL peptide from human menin. Fluorescence polarization, fluorescein-MLL peptide displacement from menin. FP activity change, % at 61.4 µM. 290,000 tested, under 10 active. AID 1766; inconclusive = falling polarisation curve, or a change in total fluorescence; inactive = total fluorescence flat and polarisation flat or rising; no compound was filed as active; the % refers to the polarisation; negative = inhibition;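 further: % of control where 0% means no effect; inhibitors lower the polarisation; unlabelled MLL peptide was the positive control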
TRPML1 inh – human mucolipin-1 channel inhibition; Q9GZU1; activity change, negative = inhibition, % (concentration not given with the values); 0.02% of 390,000 active; TRPML1-inducible cells, Ca2+ dye fluorescence, FDSS; active compounds read low; inhibition of EC80 agonist-evoked calcium signal; in the data active means activity change below about -50%; inconclusive means about -30% to -50%; inactive means above about -30%;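 further: stimulus is agonist 54-4 at its EC80 concentration; on the % scale 0 is the no-effect control and ±100 the full control effect; the text of the record puts the active cut at -80%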
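TRPML1-DL cells, Tet-induced overnight (~16 h, 37 °C) at 1,500 cells/well, were loaded with Ca8 no-wash dye plus quencher for 45-90 min at room temperature. Compounds were pinned during FDSS kinetic reading; agonist 54-4 at EC80 (4 uM final) then added.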
PINK1 modulator – PINK1 expression modulation | PINK1 immunofluorescence, high-content cytometry, 24 h | 0.2% of 410,000 active | Potency, µM (doses to about 76.6 µM), inactives show at the top dose activation (PINK1 increase), hits mostly activators; active = well fitted activation curve with a large enough effect; inconclusive = small, poorly fitted or top-dose-only effect; inactive = flat fitted curve, though single readings scatter; cell line not stated here;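 further: potency means the concentration at half of the fitted maximal effect; % of control where 0% means no effect; nearly all actives have a fitted effect of over 65% in size; a mitochondrial uncoupler was the plate control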
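Measures PINK1 amount and localization on or inside mitochondria by immunofluorescence. Stable cells get compounds at 5 concentrations for 24 hours before fixation and staining; CCCP controls included.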
* hit, by the source's call; ? = inconclusive; . = no result given; & = joins results of further samples; [ ] = remark or other dose.

No. | smiles | ClpP mod | TRPV1 potentiator | Sfp inh | TRPML1 ag | Menin MLL FP FL | TRPML1 inh | PINK1 modulator
1 | CCNc1ccc(S(=O)(=O)N(C)C)cc1[N+](=O)[O-] | -2.7% | 6.3 | 0.4% | 0.3 | -0.2 | -19.1 | 3.8%
2 | CC1CC(C)CN(C(=O)CN2CCN(Cc3ccc(Cl)cc3)C2=O)C1 (stereo not drawn) | -2.9% | -7.4 | 6.1% | 6.3 | 0.8 | -4.4 | -1.0%
3 | COc1ccccc1-n1cc(C(=O)NCC(=O)N2CCN(Cc3ccccc3)CC2)c2ccccc2c1=O | . | -8.1 | 22.7% | -0.3 | -3.0 | 3.5 | 3.3%
4 | O=C(Cn1nnc2ccccc21)NNC(=O)c1ccccc1 | . | -15.6 | 1.7% | -0.1 | 0.4 | 0.0 | -0.7%
5 | O=C(OCc1cn([C@H]2C[C@H](c3ccc(Cl)cc3)N(C(=O)C3CCCCC3)C[C@@H]2O)nn1)c1ccccc1 | -4.3% | . | . | 4.3 | . | 5.3 | -2.2%
6 | O=C(CCc1nnc(CCc2ccccc2)o1)N1CCCCC1CCn1cccn1 (stereo not drawn) | -1.6% | -4.3 | 3.3% | 0.8 | 1.3 | 3.1 | 0.7%
7 | O=C(CNS(=O)(=O)c1ccccc1)OCC(=O)c1cccc([N+](=O)[O-])c1 | -3.2% | 0.1 | -29.5% | -0.4 | -0.9 | -11.7 | -0.5%
8 | CCN1CCN(CCCNC(=O)c2cnn(-c3ccc(OC)cc3)c2C2CCN(C(=O)OC(C)(C)C)CC2)CC1 | 0.8% | . | . | -0.4 | . | -28.1 | 0.0%
9 | COc1cc(OC)c(OC)cc1CN1CCN(Cc2cccn2C)CC1 | 0.7% | 6.5 | 50.1µM* | 0.2 | 6.7 | -7.2 | -1.5%
10 | Cc1cc(C)c(C(=O)NC2CCCc3c2cnn3-c2ccc(C)c(C)c2)c(=O)[nH]1 (stereo not drawn) | -3.7% | 3.6 | 7.7% | -0.2 | . | 3.9 | 3.9%
11 | Cc1ccccc1NS(=O)(=O)c1cc(C(N)=O)ccc1C | 0.3% | -4.4 | 5.5% | -0.6 | 6.0 | -1.3 | -1.5%[38.3 µM]
12 | CCOC(=O)[C@@H]1[C@H]2COc3ccccc3[C@@H]2N2C(=O)N(c3ccc(C(F)(F)F)cc3)C(=O)[C@]12C | -0.1% | . | . | 1.7 | . | -0.1 | 1.2%
13 | CCOC(=O)C1=C[C@@H](CC)N(S(=O)(=O)c2ccc(C)cc2)[C@H]1c1cccs1 | -0.1% | . | . | 0.6 | . | 14.3 | 6.4%
14 | O=C([C@H](Cc1ccccc1)NS(=O)(=O)c1ccc(Cl)cc1)N1CC[C@@]2(O)CCCC[C@H]2C1 | -0.7% | -2.8 | -9.0% | -0.1 | 6.4 | 19.4 | 4.9%
15 | COc1ccccc1CN1CC(C(=O)N2CCN(c3ccc(F)cc3)CC2)CC1=O (stereo not drawn) | -1.1% | 7.2 | 15.2% | 0.0 | 11.5 | -0.3 | .
16 | CC(C)Oc1ccc(CNC(=S)N/N=C/c2cccnc2)cc1 | -2.4% | 1.3 | 7.5% | 2.5 | 1.0 | 20.4 | 5.2%
17 | O=C(NCc1ccc2c(c1)OCO2)c1ccc(Cl)c(S(=O)(=O)NCc2ccccc2)c1 | 1.2% | 11.9 | -10.9% | 4.7 | 4.5 | -3.7 | 1.2%
18 | COc1ccc(CNCc2c(O)c(Cl)cc3c(C)c(C)c(=O)oc23)c(OC)c1 | -1.3% | ? | -12.1% | -1.1 | 5.2 | -4.1 | 0.8%
19 | CNc1nc(NCCOc2ccccc2Cl)c2sccc2n1 | -25.0% | . | . | 13.2 | . | . | 2.9%
20 | Cc1ccc(N(CC(O)CN(C)C)S(=O)(=O)c2ccccc2)cc1 (stereo not drawn) | -0.7% | 1.4 | 14.5% | -0.1 | 1.5 | 9.7 | -0.7%
21 | CSc1nc(-c2ccc(Cl)cc2)nn1C(=O)c1ccccc1 | 32.2% | -7.4 | 9.1% | -0.4 | 1.7 | -9.6 | 6.6%
22 | OCC1(Cc2ccccc2C(F)(F)F)CCN(Cc2ccncc2)CC1 | . | -3.3 | 12.3% | 0.9 | -0.3 | -8.5 | 1.7%
23 | CCOC(=O)c1sc(=N)n(-c2ccc(OC)cc2)c1C | -2.5% | -2.8 | 15.6% | 6.0 | 4.4 | -2.5 | 8.5%
24 | CCOC(=O)c1cc(-c2ccco2)nc2c1c(C)nn2-c1ccccc1 | -4.7% | -16.0 | ? | 0.2 | 7.2 | 5.6 | 6.3%
25 | CCc1ccc(CN(C)Cc2nc(Cc3ccc(OC)c(OC)c3)no2)nc1 | . | -9.2 | -16.7% | -0.3 | 3.1 | 9.9 | ?
26 | CC1=C(C(=O)OCc2ccccc2)C(c2ccccc2[N+](=O)[O-])NC(=O)N1C (stereo not drawn) | 0.7% | 0.8 | -21.3% | . | -4.5 | . | 0.2%
27 | COc1ccc(CCC(=O)NNC(=O)c2ccccn2)cc1OC | -1.1% | -4.7 | . | -0.3 | . | -7.6 | -0.4%
28 | COc1ccc(C(=O)NCC2(c3ccccc3)CCCC2)c(OC)c1 | -2.0% | -12.4 | -6.6% | 7.0 | 3.1 | 24.3 | 0.6%
29 | C/C(=N\Nc1nc2ccccc2[nH]1)c1ccc2c(c1)OCCO2 | . | 0.3 | -14.4% | 1.2 | 0.3 | -17.5 | 2.8%
30 | O=C1OC(c2ccccc2)(c2ccc(O)cc2)c2ccccc21 (stereo not drawn) | . | . | . | 14.7 | . | 51.4 | 3.7%
31 | Cc1ccc(NC(=O)C2CCCN(S(=O)(=O)c3ccc4[nH]c(=O)ccc4c3)C2)cc1C (stereo not drawn) | 30.2%&29.5% | -4.0 | 27.8% | 2.7&0.6 | 5.2 | -1.4&11.5 | 4.4%&4.2%
32 | O=c1c2cccnc2n(Cc2cccc(F)c2)c(=O)n1Cc1ccc(F)cc1 | ? | . | . | 2.6 | . | -3.2 | 1.7%
33 | CC1CN(C(=O)COC(=O)c2cc([N+](=O)[O-])ccc2Cl)CC(C)O1 (stereo not drawn) | . | 1.9 | 15.9% | 0.7 | -1.8 | 19.5 | 0.6%
34 | O=C(CN(C(=O)Cn1nnc(-c2cccs2)n1)c1ccc2c(c1)OCCO2)NCc1ccccc1 | ? | 15.6 | -10.4% | 0.4 | -0.6 | 0.3 | -0.7%
35 | Cc1nn(-c2nc3ccccc3n2Cc2ccccc2)c2c1C(=O)CC(C)(C)C2 | -10.3% | -14.8 | -25.5% | 2.7 | 4.2 | 8.6 | 17.6%
36 | CNc1cc(F)nc(F)n1 | -0.8% | -3.2 | 0.3% | 0.7 | -7.9 | -5.3 | 2.2%
37 | CC1(C(=O)O)CCC(C(=O)Nc2ccc(Cl)c(Cl)c2)C1(C)C (stereo not drawn) | -0.5% | -5.4 | 12.7% | 0.1 | 0.0 | -8.6 | 1.6%
38 | CC(=O)c1c(C)nc2ccc(Br)cc2c1C(=O)O | 0.1% | 5.9 | 22.3% | -0.7 | -3.1 | -4.6 | 2.1%
39 | CCOc1cc(/C=C(\C#N)C(=O)Nc2ccccc2C)ccc1OCc1cc(=O)n2nc(CC)sc2n1 | -10.6% | . | . | -0.4 | . | -10.6 | 3.5%
40 | CCN(CC)CCn1c(=S)[nH]c2ncccc2c1=O | -19.9% | -14.0 | -30.0% | 0.2 | -1.5 | 3.9 | .
41 | CCc1cccc(C)c1NC(=O)CC1Oc2ccc(C)cc2NC1=O (stereo not drawn) | 1.5%&0.9% | -1.3 | 10.6% | -0.2&0.3 | -2.2 | -17.2&-11.2 | 5.6%&0.0%
42 | CCCCN(C=O)c1c(CC)nc2ccc(C(=O)N3CCN(C(=O)c4ccco4)CC3)cn12 | 0.7% | . | . | -0.5 | . | . | 0.4%
43 | CCCN1CCN(C(=O)c2cn(CC(C)C)c(=O)c3cc(OC)c(OC)cc23)CC1 | ? | 3.9 | 14.9% | -1.1 | 2.7 | 8.1 | 6.7%
44 | COc1ccc(C)cc1-n1c(-c2ccc(Cl)cc2)cc2c1CC(C)(C)CC2=O | -10.3% | . | . | 0.1 | . | 57.7 | -0.2%
45 | O=C(CN1C(=O)NC2(CCCCCC2)C1=O)c1ccc(Cl)cc1 | 0.6% | 11.1 | . | -0.3 | . | -0.4 | 0.9%
46 | CN(CCN1CCOCC1)Cc1nc(-c2ccc(Cl)cc2)no1 | . | -2.8 | 22.5% | -1.1 | 0.2 | 2.9 | 2.9%
47 | CCCCn1c(=O)c2oc3ccccc3c2n(Cc2ccc(OC)cc2)c1=O | ? | . | . | 3.3 | . | 49.8 | 1.3%
48 | O=C(CNc1cccc(S(=O)(=O)N2CCOCC2)c1)N1CCc2ccccc21 | 2.3% | -4.9 | 11.2% | 1.1 | 0.1 | -9.0 | -0.1%
49 | CC(=O)N1c2ccc(S(=O)(=O)N3CCCC3)cc2CC1C(=O)Nc1cc(C)cc(C)c1 (stereo not drawn) | 1.0% | -2.1 | 10.8% | -0.2 | -3.6 | -10.6 | 0.6%
50 | CCOc1ccc(CN2CCN(C/C=C/c3ccc(OC)cc3)CC2CCO)cc1 (stereo not drawn) | . | -4.0 | 11.1% | 0.8 | -3.1 | 26.3 | 1.0%
51 | CCOc1ccc(NC(=O)c2ccc(CNc3c(NC4CCCCC4)c(=O)c3=O)cc2)cc1 | -2.2% | 2.8 | 2.2% | 0.3 | 1.0 | 5.2 | 1.9%
52 | O=C(Nc1cccc2ccccc12)c1cccc(F)c1 | . | -4.7 | -2.6% | -0.7 | -0.1 | -2.6 | -0.1%
53 | CCN(CC)C(=O)NC1CCCCCCC1 | 2.5% | -2.8 | 19.3% | 0.9 | 2.9 | 1.6 | 4.2%
54 | Cc1cccc(C(=O)NC(=S)Nc2ccccc2C(=O)O)c1 | . | 3.6 | ? | 2.2 | 0.0 | -16.0 | -0.7%
55 | O=C(Cn1ccc([N+](=O)[O-])n1)NCc1nc2ccccc2[nH]1 | . | 13.4 | -16.5% | -0.6 | 4.7 | -29.8 | 1.8%
56 | CCN(C(=O)COc1ccc(N(C)S(=O)(=O)c2ccc(NC(C)=O)cc2)cc1)C1CCCCC1 | 0.4% | . | . | 0.8 | . | 1.6 | 0.3%
57 | CCNC(=S)NNC(=O)c1cccn(Cc2ccc(Cl)cc2Cl)c1=O | 102.9% | . | 12.6% | 3.5 | 8.8 | -3.4 | -3.2%

From PubChem BioAssay
